TRPML1 agonist: qHTS for Agonists of the Human Mucolipin Transient Receptor Potential 1 (TRPML1); TRPML1-expressing cells, Ca2+ dye fluorescence, FDSS; host cell line not named in the record; reference of the full effect not given here; activation, % (no concentration beside the values); 0.12% of 410,000 active; in the data active = activation above about 50%; inconclusive = about 30% to 50%; inactive = below about 30%; also: 0% is about no effect; the text of the record puts the active cut at 80%
Target sequence (Q9GZU1 whole entry, looked up): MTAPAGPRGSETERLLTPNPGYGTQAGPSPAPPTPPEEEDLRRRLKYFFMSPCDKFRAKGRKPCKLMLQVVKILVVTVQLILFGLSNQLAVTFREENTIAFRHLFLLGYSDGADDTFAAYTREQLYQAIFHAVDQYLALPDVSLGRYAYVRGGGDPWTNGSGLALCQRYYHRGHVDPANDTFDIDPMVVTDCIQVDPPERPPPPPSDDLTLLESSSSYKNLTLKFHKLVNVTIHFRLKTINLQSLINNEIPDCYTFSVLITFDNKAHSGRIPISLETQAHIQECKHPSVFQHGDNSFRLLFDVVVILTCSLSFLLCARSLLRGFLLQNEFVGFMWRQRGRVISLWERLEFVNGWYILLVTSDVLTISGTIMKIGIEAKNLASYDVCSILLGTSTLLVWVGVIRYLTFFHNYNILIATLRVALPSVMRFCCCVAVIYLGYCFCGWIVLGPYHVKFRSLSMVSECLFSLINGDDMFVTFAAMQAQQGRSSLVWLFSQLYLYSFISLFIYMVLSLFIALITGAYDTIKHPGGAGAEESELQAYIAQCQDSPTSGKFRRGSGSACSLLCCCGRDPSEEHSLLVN
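TRPML1-DL cells, Tet-induced overnight (~16 h, 37 degrees C), loaded 45-90 min at room temperature with Ca8 no-wash calcium dye plus quencher. FDSS fluorescence: 10 s baseline, compound pin-transfer, 110 s agonist read, then EC80 54-4 (4uM final) and 110 s antagonist read.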
D2 agonist: Beta-Arrestin HTS for Positive Allosteric Modulators of the Human D2 Dopamine Receptor: Agonists; DiscoveRx PathHunter D2 beta-arrestin, luminescence, 90 min; 100% = 57 uM dopamine signal; activation, % (test concentration not listed); 0.084% of 360,000 active; AID 624465, 2012; in the data active = activation above about 40%; inconclusive = about 15% to 40%; inactive = below about 15%; also: compound concentration not given in the record; the text of the record calls up to 30% inactive
Target sequence (P14416 whole entry, looked up): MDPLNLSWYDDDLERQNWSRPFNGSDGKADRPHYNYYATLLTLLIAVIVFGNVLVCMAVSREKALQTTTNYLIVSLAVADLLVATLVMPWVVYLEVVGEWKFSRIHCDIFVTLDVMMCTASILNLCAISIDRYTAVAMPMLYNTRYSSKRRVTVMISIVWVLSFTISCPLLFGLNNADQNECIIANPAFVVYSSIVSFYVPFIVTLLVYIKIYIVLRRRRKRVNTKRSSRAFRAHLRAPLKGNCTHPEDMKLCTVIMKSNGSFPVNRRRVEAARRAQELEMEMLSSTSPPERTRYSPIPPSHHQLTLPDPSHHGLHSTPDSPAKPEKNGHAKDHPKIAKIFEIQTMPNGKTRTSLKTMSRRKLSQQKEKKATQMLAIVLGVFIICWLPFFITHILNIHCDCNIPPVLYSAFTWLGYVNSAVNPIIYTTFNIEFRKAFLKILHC
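Agonist mode: compounds alone added to overnight-plated D2 PathHunter cells for 90 min at 37 C, with 57 uM final dopamine (EC100) defining full response. Beta-arrestin recruitment detected by chemiluminescent reagent, read after 1 h at ambient temperature.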
CtBP-E1A blk: qHTS Assay for Inhibitors of the CtBP/E1A Interaction. CtBP / adenovirus E1A interaction (AlphaScreen). AlphaScreen GST-E1A/His-CtBP binding, 1536-well; active compounds read low; control for the full effect not named in the record. activity change, % (test concentration not listed). 0.49% of 340,000 active. AID 651724, 2012; in the data active means activity change below about -65%; inconclusive means about -30% to -65%; inactive means above about -30%; also: % is scaled to controls: 0 for no effect and ±100 for the full control effect
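Steps: dispense buffer (Tris pH 8.0, NaCl 300 mM, TCEP 1 mM, BSA, Tween 20); add 5X protein mix (GST-E1A, His-CtBP, 125 nM each); pin 23 nL compound; 2 h at 37 °C, dark; add 5X beads (50 ug/mL); 1 h; read.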
PINK1 expr mod: A Quantitative High throughput Screen to Identify Chemical Modulators of PINK1 Expression. 0.2% of 410,000 active. Potency, µM (top dose mostly 76.6 µM), for inactives: at the highest dose activation (PINK1 increase), hits mostly activators. PINK1 immunofluorescence, high-content cytometry, 24 h; active = well fitted activation curve with a large enough effect; inconclusive = small, poorly fitted or top-dose-only effect; inactive = flat fitted curve, though single readings scatter; cell line not stated here;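 also: potency is read from the fitted curve at half-maximal effect; % of control where 0% means no effect; nearly all actives have a fitted effect of over 65% in size; a mitochondrial uncoupler was the plate control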
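Readout is PINK1 immunofluorescence, quantified alongside mitochondrial, cell and nuclear markers by laser-scanning microplate cytometry. Cells from a stable line were exposed to compound titrations (5 concentrations) for 24 hours, with CCCP controls.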
Six1-Eya2 blk: qHTS Assay for Inhibitors of the Six1/Eya2 Interaction; Homeobox protein SIX1 (Homo sapiens) + Protein phosphatase EYA2 (Homo sapiens), …; AlphaScreen GST-Six1/His-Eya2 binding, biochemical; active compounds read low; control for the full effect not named in the record; activity change, % (test concentration not listed); 0.56% of 360,000 active; in the data active = activity change below about -65%; inconclusive = about -30% to -65%; inactive = above about -30%; also: % is scaled to controls: 0 for no effect and ±100 for the full control effect
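AlphaScreen luminescence read after one hour at 37 °C in darkness. Pin-transferred compounds met GST-Six1 and His-Eya2 protein (5X stock 250 nM/500 nM) plus glutathione donor and Ni-chelate acceptor beads (5X, 50 ug/mL).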
D2 potentiator: Beta-Arrestin HTS for Positive Allosteric Modulators of the Human D2 Dopamine Receptor: Potentiators | AID 624464, 2012 | DiscoveRx D2 beta-arrestin cells, luminescence, 90 min; 100% = 57 uM dopamine signal | 0.23% of 360,000 active | potentiation, % (concentration not given with the values); active = potentiation of 50% or more; inconclusive = 30% to 50%; inactive = 30% or less;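 also: compound concentration not given in the record; tested on top of an EC20 dose of dopamine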
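D2 cells co-treated with compound plus 50 nM dopamine (EC20) for 90 min at 37 deg C to detect potentiation. Beta-arrestin recruitment was read as enzyme-fragment luminescence after 1 h at ambient temperature. Full response was set by 57 uM dopamine.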
Active calls of the source: *; ? = inconclusive; nt = no result given; [ ] = remark or other dose.

entry | smiles | TRPML1 agonist | D2 agonist | CtBP-E1A blk | PINK1 expr mod | Six1-Eya2 blk | D2 potentiator
1 | CCC(=O)c1ccc(OCC(O)CNCCc2ccc(Cl)cc2)cc1 (stereo not drawn) | -0.6 | -7.3 | nt | 6.7% | -5 | -10
2 | CC1CCN(C(=O)C2CCC(CNc3c(N4CCCCC4)c(=O)c3=O)CC2)CC1 (stereo not drawn) | -0.4 | -6.4 | nt | -1.0% | 4 | -15
3 | O=C(CCN=C1NS(=O)(=O)c2ccccc21)OCC(=O)c1ccc(F)cc1 | -0.4 | -0.3 | 9 | 1.7% | -4 | -7
4 | O=C(NNC(=O)c1cc(-c2ccc(Cl)cc2)nc2ccccc12)c1csc(N2CCOCC2)n1 | 1.3 | -1.6 | -4 | 0.4% | -8 | -3
5 | COc1ccc(/C=C2\SC(=S)N(CC(=O)N(C)C3CCS(=O)(=O)C3)C2=O)cc1 (stereo not drawn) | 0.3 | 5.8 | -23 | 0.1% | -2 | -9
6 | COCCCNC(=S)NC1CCCCC1 | -0.6 | -2.7 | 1 | 1.2% | 20 | 1
7 | COC(=O)CNC(=O)c1c(-c2ccccc2Cl)noc1C | -0.8 | 0.0 | 1 | 1.5% | 10 | 10
8 | CC(c1ccccc1F)n1cc(C(=O)NCCc2ccco2)nn1 (stereo not drawn) | -0.7 | -3.2 | -2 | 4.4% | -3 | -7
9 | Cc1ccc(C(=O)Cn2cnc3ccccc3c2=O)cc1C | -0.1 | -5.9 | -1 | 2.8% | 2 | -15
10 | COc1ccc([C@@H]2C[C@H]3[C@@H](CN2S(=O)(=O)c2ccccc2)C(=O)C[C@@H](c2ccccc2)N3S(=O)(=O)c2ccc(C)cc2)cc1 | 3.5 | -5.7 | -21 | 3.0% | 16 | 0
11 | O=C(O)c1c(Cl)cccc1Nc1ccccc1 | -1.1 | -2.9 | -8 | 0.7% | 2 | -2
12 | CCCS(=O)(=O)N1CCCC(C(=O)NCc2ccc3c(c2)OCO3)C1 (stereo not drawn) | -0.7 | 1.4 | -2 | -0.8% | 9 | -25
13 | CCOC(=O)c1ccc2nc(C(F)(F)F)[nH]c(=O)c2c1 | -1.0 | -1.6 | 1 | 0.8% | 0 | -2
14 | Cn1c(=O)[nH]c(=O)c2c1nc(NCCCO)n2CCCc1ccccc1 | 0.7 | 2.0 | 8 | 14%[38.3 µM] | 0 | -3
15 | CCn1c(-c2cccc(S(=O)(=O)N3CCCC3)c2)n[nH]c1=S | -0.5 | -6.0 | nt | 0.0% | 5 | -19
16 | Cn1c(-c2ccccc2)cnc1NCc1cccc([N+](=O)[O-])c1 | -0.1 | -2.5 | -2 | 2.6% | -7 | -7
17 | O=C(CCc1nc2ccccc2c(=O)[nH]1)NCCN1C(=O)S/C(=C\c2ccc(Cl)cc2Cl)C1=O | 0.0 | -3.4 | 6 | 1.4% | -14 | -3
18 | COc1ccccc1OCCCOc1ccc(C)cc1Br | 0.7 | -1.4 | 40 | 1.8% | 44 | 15
19 | O=S1(=O)CC(N2CCCCC2)CN1Cc1cn(Cc2cccc(Cl)c2)nn1 (stereo not drawn) | -0.6 | nt | -4 | -0.4% | -6 | nt
20 | Cc1cccc(/C=C2\Sc3ccc(C(=O)N4CCOCC4)cc3N(C)C2=O)c1 | 0.7 | 2.2 | nt | 0.2% | -2 | -9

Other compounds:
entry | smiles | TRPML1 agonist | D2 agonist | CtBP-E1A blk | PINK1 expr mod | Six1-Eya2 blk | D2 potentiator
21 | O=C(Nc1ccc(NC(=O)C2CC2)cc1)c1ccco1 | -0.5 | -1.3 | 4 | -2.2% | -5 | -2
22 | CCOC(=O)[C@]12CCC=C1N(Cc1ccc3c(c1)OCO3)C(=O)[C@H](CC(=O)N1CCCCC1)C2 | -0.6 | nt | -3 | -0.2% | -6 | nt
23 | Cc1ccc(-n2nc(-c3ccc(N)cc3)cc2N)cc1 | 0.0 | -5.5 | -13 | 0.4% | -4 | -13
24 | OCCNc1nc2ccccc2n1CCN1CCCCC1 | -0.1 | -1.0 | 3 | -0.9% | 8 | -8
25 | O=C(COc1cccc(NC(=O)c2cccc([N+](=O)[O-])c2)c1)c1ccc(Br)cc1 | 1.7 | 1.8 | -12 | 3.3% | -8 | 10
26 | Cc1c(CN(C)Cc2cn(C)nc2-c2ccccc2F)[nH]c2ccccc12 | 0.8 | -2.9 | -17 | 0.0% | 7 | 11
27 | COc1ccc(C(=O)NC2CCCCCC2)cc1S(=O)(=O)Nc1ccc(Br)cc1 | 0.9 | 0.0 | -1 | 14% | 0 | -18
28 | CC(C)c1onc(C(=O)NCc2ccccn2)c1[N+](=O)[O-] | 0.0 | -0.8 | 0 | -0.8% | -6 | -5
29 | COc1ccccc1NC(=O)c1cc(Cl)nc2ccccc12 | -0.1 | -3.0 | -5 | 0.4% | -10 | -9
30 | Cc1cc(N2C(=O)C(=O)/C(=C(/O)c3ccc(F)cc3)C2c2cccc(Br)c2)no1 (stereo not drawn) | 3.4 | -0.5 | 2 | -0.6% | 3 | -23
31 | CSc1ccc(/C=C/C(=O)OCC(=O)N2CCc3ccccc32)cc1 | -0.6 | -3.8 | nt | 2.2% | 12 | -10
32 | O=C1OCCN1C(=O)[C@H]1[C@H](c2ccc(F)cc2)C(c2cccc(Cl)c2)=NN1c1ccc(Br)cc1 | 0.0 | 0.1 | 67 | 2.0% | 81 | 2
33 | CC(=O)c1ccccc1NC(=O)c1ccc(OCc2c(C)noc2C)cc1 | 0.1 | 4.6 | -6 | 1.6% | 5 | -2
34 | O=c1cc(-c2ccc(O)c(O)c2)oc2c1ccc1ccccc12 | 0.8 | -0.8 | ? | ? | ? | -1
35 | Cc1[nH]c2ccccc2c1C(=O)C(=O)N1CCN(c2ccccc2Cl)CC1 | 0.6 | 0.6 | -11 | -1.2% | -6 | -4
36 | O=C(COc1ccc(Cl)cc1)NCc1cn2cc(Cl)ccc2n1 | -0.2 | -3.2 | 0 | 7.3% | -1 | -36
37 | CC1Sc2ccc(S(=O)(=O)CCC(=O)Nc3ccc(C(C)C)cc3)cc2NC1=O (stereo not drawn) | -0.5 | 2.9 | -18 | 3.8% | -10 | 5
38 | CCOC1=C2CN(S(=O)(=O)c3ccc(C)cc3)[C@H](c3ccccc3)C[C@@H]2N(S(C)(=O)=O)[C@H](c2ccccc2)C1 | 0.9 | -0.1 | -1 | -0.6% | -3 | 3
39 | O=C(NC1CCN(C(=S)Nc2ccc(F)cc2)CC1)c1ccco1 | -0.3 | 4.9 | -13 | -2.9% | -9 | -2
40 | Cc1occc1C(=O)N/N=C/c1ccc(N(C)C)cc1 | 0.2 | 0.0 | -5 | 17% | -3 | -6

2 compounds drawn at random from the list so far, as already listed:
entry | smiles | TRPML1 agonist | D2 agonist | CtBP-E1A blk | PINK1 expr mod | Six1-Eya2 blk | D2 potentiator
27 | COc1ccc(C(=O)NC2CCCCCC2)cc1S(=O)(=O)Nc1ccc(Br)cc1 | 0.9 | 0.0 | -1 | 14% | 0 | -18
30 | Cc1cc(N2C(=O)C(=O)/C(=C(/O)c3ccc(F)cc3)C2c2cccc(Br)c2)no1 (stereo not drawn) | 3.4 | -0.5 | 2 | -0.6% | 3 | -23

Filtered by structure, those above with bromine
entry | smiles | TRPML1 agonist | D2 agonist | CtBP-E1A blk | PINK1 expr mod | Six1-Eya2 blk | D2 potentiator
18 | COc1ccccc1OCCCOc1ccc(C)cc1Br | 0.7 | -1.4 | 40 | 1.8% | 44 | 15
25 | O=C(COc1cccc(NC(=O)c2cccc([N+](=O)[O-])c2)c1)c1ccc(Br)cc1 | 1.7 | 1.8 | -12 | 3.3% | -8 | 10
27 | COc1ccc(C(=O)NC2CCCCCC2)cc1S(=O)(=O)Nc1ccc(Br)cc1 | 0.9 | 0.0 | -1 | 14% | 0 | -18
30 | Cc1cc(N2C(=O)C(=O)/C(=C(/O)c3ccc(F)cc3)C2c2cccc(Br)c2)no1 (stereo not drawn) | 3.4 | -0.5 | 2 | -0.6% | 3 | -23
32 | O=C1OCCN1C(=O)[C@H]1[C@H](c2ccc(F)cc2)C(c2cccc(Cl)c2)=NN1c1ccc(Br)cc1 | 0.0 | 0.1 | 67 | 2.0% | 81 | 2

More entries:
entry | smiles | TRPML1 agonist | D2 agonist | CtBP-E1A blk | PINK1 expr mod | Six1-Eya2 blk | D2 potentiator
41 | CC1(C)CC(=O)C2=C(C1)N(c1ccccc1)C(=O)CC2c1ccc(O)cc1 (stereo not drawn) | -0.1 | 0.1 | 7 | 2.2% | 0 | -2
42 | COc1ccc(NC(=O)COC(=O)C2CCCCC2)c([N+](=O)[O-])c1 | 1.0 | -4.0 | -20 | 1.2% | -28 | -1
43 | CCNS(=O)(=O)c1ccc(NC(=S)N2CCc3ccccc32)cc1 | 0.5 | -3.8 | -6 | 0.2% | -1 | -30
44 | CC(C)N1CCN(Cc2ccoc2)CC1CCO (stereo not drawn) | 0.1 | 0.6 | -24 | -2.9% | 0 | -7
45 | COc1ccc(C(C[N+](=O)[O-])n2nc(C)cc2C)cc1 (stereo not drawn) | 5.1 | 0.5 | 16 | -2.5% | -5 | 2
46 | CC(C)N(Cc1ccccc1)C(=O)Cn1c(=O)cnc2ccccc21 | -0.4 | -5.5 | nt | 0.8% | 0 | -16
47 | CCCCOC(=O)CCc1nc2ccccc2[nH]c1=O | 0.2 | 5.0 | 2 | 2.0% | 3 | -2
48 | Cc1ccc2[nH]c(=O)c3cc(C(=O)NCCC(C)C)sc3c2c1 | nt | 0.3 | -3 | 8.6% | -3 | -6
49 | CCN1CCc2nc(SCC(=O)Nc3ccc(OC)cc3)c(C#N)cc2C1 | -0.7 | -2.3 | -7 | 0.7% | -4 | -20
50 | O=C(Nc1cc(C(F)(F)F)ccc1N1CCOCC1)C1=COCCO1 | 0.4 | -6.8 | -4 | -1.3% | 11 | -25
51 | CCCC(=O)N1CCC1(C)C(=O)Nc1ccc2nc(C)ccc2c1 (stereo not drawn) | -0.5 | -2.1 | 6 | 2.3% | 2 | -3
52 | CCc1nnc(NC(=O)CSc2ccc(-c3nc4ccccc4[nH]3)cn2)s1 | 1.3 | 4.9 | -8 | 4.0%[38.3 µM] | -5 | 15
53 | O=C(NCc1ccccc1)C1C2C=CC3(CN(Cc4cccnc4)C(=O)C13)O2 (stereo not drawn) | -0.4 | -3.9 | 4 | 10%[38.3 µM] | 2 | -4
54 | COc1ccc(NC(=O)CCSCCc2ccccn2)cc1OC | -0.7 | -1.0 | 4 | 1.6% | 11 | -5
55 | Cc1cc(N2CCCCC2)nc(NCc2ccccc2)n1 | ? | -2.7 | -24 | ? | -2 | -21
56 | COc1ccc(C2CC(c3ccccc3)Nc3nc(NC(=O)c4cccs4)nn32)cc1 (stereo not drawn) | 0.9 | -2.1 | -6 | 0.7% | 0 | -10
57 | O=C(COc1ccc(C(=O)c2ccc(F)cc2)cc1)NCc1ccc(F)cc1 | -0.1 | -2.4 | -23 | 4.6% | -22 | -18
58 | Cc1cc(C(=O)NCc2cc(C(=O)O)oc2C)c(C)o1 | 1.1 | -2.1 | -12 | -3.6% | -2 | -16

Screens deposited in PubChem by National Center for Advancing Translational Sciences (NCATS).
